Bioassay records from PubChem.
Sa growth 42C = inhibitors of Staphylococcus aureus growth at 42 °C. S. aureus RN4220 growth, OD600, 20 h; hits give low values. relative growth, % (no concentration beside the values). 0.53% of 170,000 active;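 active means growth at 42 °C up to 50% and 20 or more points under that at 30 °C, or under 10% at both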;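 further: 300 nL library stock went into each well; scaled to the means of positive and negative controls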
HCMV NEC inh = cytomegalovirus nuclear egress complex inhibition | AID 1918969 | inhibition, % (no concentration beside the values) | HTRF UL50-UL53 interaction, normalized percent inhibition | 0.15% of 190,000 active;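 active means both replicates at 50% or more, plus weaker picks with an unusually low signal ratio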;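 further: stock transfer was 100 nL into about 20 µL; 0% = negative control wells and 100% = wells with untagged competitor protein; inactives centre near -12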
GIV-Gai inh = inhibitors of GIV GBA-motif binding to rat Galpha-i3; P08753; Galpha-i3/FITC-GIV peptide fluorescence polarization, 90 min; hits give low values; scaled: aluminum fluoride 0%, vehicle 100%; percent of control (FP), % (no concentration beside the values); 0.42% of 210,000 active; AID 1224905;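 active means replicate mean at 85% of control or lower, very high polarization wells dropped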;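 further: wells of about 15 µL received 100 nL stock; the first replicate is given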
Target sequence (P08753 whole entry, looked up): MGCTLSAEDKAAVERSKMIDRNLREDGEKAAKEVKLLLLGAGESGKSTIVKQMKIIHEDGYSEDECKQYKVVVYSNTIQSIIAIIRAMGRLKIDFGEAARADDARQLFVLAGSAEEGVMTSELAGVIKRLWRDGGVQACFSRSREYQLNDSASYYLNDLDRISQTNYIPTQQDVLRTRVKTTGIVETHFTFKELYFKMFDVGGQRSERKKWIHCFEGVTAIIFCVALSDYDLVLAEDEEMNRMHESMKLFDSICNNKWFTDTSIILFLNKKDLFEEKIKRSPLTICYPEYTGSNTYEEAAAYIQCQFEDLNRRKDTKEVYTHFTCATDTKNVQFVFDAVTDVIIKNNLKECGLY
Sa growth 42C second temp = recorded beside Sa growth 42C, whose call it bears; relative growth, %; measured here: growth at 30 °C;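 optical density after 20 h as mean of two plates; 100% = untreated growth and lower means inhibition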
* hit, by the source's call; / = not tested or not shown; & = joins results of further samples.

(1) Cc1ccc(Cn2ncc3ccccc32)cc1
(2) O=C(COC(=O)C1CCC1)NC12CC3CC(CC(C3)C1)C2
(3) c1ccc(-c2cc(NCc3ccco3)n3c(n2)nc2ccccc23)cc1
(4) CC(=O)Nc1cccc(NC(=O)C(=O)NCCc2sc(-c3ccccc3)nc2C)c1
(5) COc1ccc(C(=O)Nc2nc3c(s2)Cc2c(Br)ccc(OC)c2-3)cc1OC
(6) O=C(CCn1c(=S)[nH]c2ccsc2c1=O)NCCc1ccc(Cl)cc1
(7) COc1ccc(-n2ccnc(NCCc3ccc(S(N)(=O)=O)cc3)c2=O)cc1
(8) CC1CCc2sc(C(=O)O)cc2C1 (stereo not given)
entry no.	1	2	3	4	5	6	7	8
HCMV NEC inh	-10	-21	17	/	-5	/	/	8
GIV-Gai inh	106	/	111	97	100	100	97	99
Sa growth 42C	88	104	98	122	94	107	74	88
Sa growth 42C second temp	90	86	92	77	70	84	88	97

Next section (4 carried over from the part before).
(5) COc1ccc(C(=O)Nc2nc3c(s2)Cc2c(Br)ccc(OC)c2-3)cc1OC
(6) O=C(CCn1c(=S)[nH]c2ccsc2c1=O)NCCc1ccc(Cl)cc1
(7) COc1ccc(-n2ccnc(NCCc3ccc(S(N)(=O)=O)cc3)c2=O)cc1
(8) CC1CCc2sc(C(=O)O)cc2C1 (stereo not given)
(9) CC(C)NC(=O)C1CCN(Cc2ccccc2Cl)CC1
(10) Cc1ccc(N(CC(=O)NCc2ccc(Cl)cc2)S(=O)(=O)c2c(C)nn(C)c2C)cc1
(11) Cc1cccc(NC(=O)c2oc3ccccc3c2NC(=O)c2cc(=O)c3cc(Cl)ccc3o2)c1
(12) O=C(NC1Cc2ccccc2C1)c1nnc(-c2ccccc2)o1
(13) COc1ccc(-n2c(SCC(=O)Nc3cccc(C)c3C)nc3c([nH]c4ccccc43)c2=O)cc1
(14) CCCCNC(=O)CC1Nc2cc(C)c(C)cc2NC1=O (stereo not given)
(15) Cc1ccc(C(=O)NCC(=O)O)cc1S(=O)(=O)N1CCCCC1
(16) Nc1c(Cl)cc(Cl)cc1C(=O)OCC(=O)N1CCCCC1
entry no.	5	6	7	8	9	10	11	12	13	14	15	16
HCMV NEC inh	-5	/	/	8	16	-9	0	-6	/	-55	/	-21
GIV-Gai inh	100	100	97	99	96	103	105	102	99	104	95	/
Sa growth 42C	94	107	74	88	89	/	96	97	100	103	86	100
Sa growth 42C second temp	70	84	88	97	85	/	91	88	86	89	86	86

(17) COc1ccc(OC)c(CNC(=O)CN2C(=O)CCn3nc(-c4cn(C)c5ccccc45)cc32)c1
(18) CCOC(=O)c1cn(CC(=O)Nc2ccc(CC)cc2)c2cnccc2c1=O
(19) O=S(=O)(NCCc1csc2nc(-c3ccc(Cl)cc3)nn12)c1ccc2c(c1)OCCO2
(20) COc1ccc(C(O)P(=O)(OC2CCCCC2)c2ccc(N(C)C)cc2)cc1OC (stereo not given)
(21) O=C(NCc1csc(-c2cccs2)n1)c1ccc(F)cc1Cl
(22) Cc1ccc(SC#N)c(N)n1
(23) Cc1cc(S(=O)(=O)N2CCCC2)ccc1OCC(N)=O
(24) Cc1ccc(S(=O)(=O)c2c(O)c3ccc(C(=O)NCc4ccccc4Cl)cc3[nH]c2=O)cc1
entry no.	17	18	19	20	21	22	23	24
HCMV NEC inh	/	-5	/	-14	-40	-19	-12	/
GIV-Gai inh	102	143	102	103	104	98	102	101
Sa growth 42C	95	/	147	98	77	68	89	106
Sa growth 42C second temp	94	/	81	80	91	46	89	89

(25) CCCC1CCCCCC1NC(C)=O (stereo not given)
(26) CCNc1nc(Cl)nc(Oc2ccc(=O)n(-c3ccccc3)n2)n1
(27) O=S(=O)(Nc1cccc(-c2ccc(N3CCOCC3)nn2)c1)c1cc(C(F)(F)F)ccc1Cl
(28) CC(SCC(=O)Nc1nc(-c2ccccc2)cs1)C(=O)O (stereo not given)
(29) CCOc1cc(C=C2C(=O)NC(=S)NC2=O)ccc1OCCOc1cccc(C)c1
(30) CCCNC(=O)c1ccc2c(=O)n(-c3ccc(F)cc3)c(SCC(=O)c3c[nH]c4ccc(OC)cc34)nc2c1
(31) CC1CCc2nn(CC(=O)N3CCN(C(=O)c4ccco4)CC3)cc2C1 (stereo not given)
(32) O=C(c1c(O)c2ccccc2oc1=O)C1CCC1
entry no.	25	26	27	28	29	30	31	32
HCMV NEC inh	-2	-32	/	-12	-11	-6	4	/
GIV-Gai inh	/	100	98	/	94	114	106	98
Sa growth 42C	103	94	63	110	/	/	105	98
Sa growth 42C second temp	101	93	74	101	/	/	98	67

An excerpt from above in order of their number in Sa growth 42C second temp, largest number first:
| no. | molecule | GIV-Gai inh | Sa growth 42C | Sa growth 42C second temp |
| --- | --- | --- | --- | --- |
| 28 | CC(SCC(=O)Nc1nc(-c2ccccc2)cs1)C(=O)O (stereo not given) | / | 110 | 101 |
| 31 | CC1CCc2nn(CC(=O)N3CCN(C(=O)c4ccco4)CC3)cc2C1 (stereo not given) | 106 | 105 | 98 |
| 26 | CCNc1nc(Cl)nc(Oc2ccc(=O)n(-c3ccccc3)n2)n1 | 100 | 94 | 93 |

Carrying on.
(33) Cn1nnc2cc(C(=O)N(CCO)c3ccccc3)ccc21
(34) O=C(NCc1ccccc1)c1cc2sccc2n1Cc1ccc(F)cc1
(35) CCOC(=O)C1CCCN(C(=O)c2cc(-c3ccc(OC)c(OC)c3)no2)C1 (stereo not given)
(36) COc1ccccc1OCCCn1cc(C#N)c2ccccc21
(37) FC(F)(F)c1cc(-c2cccs2)n[nH]1
(38) Cc1cc(=O)n2c(C)csc2c1C#N
(39) COC(=O)c1c(N)n(-c2ccc(N3CCOCC3)cc2)c2nc3ccccc3nc12
(40) COc1ccccc1C1N=C(c2ccc3c(c2)OCO3)CC(c2ccccc2O)N1 (stereo not given)
entry no.	33	34	35	36	37	38	39	40
HCMV NEC inh	5	-1	-19	-6	-14	1	-43	-38
GIV-Gai inh	105	103	97	98	104	/	/	104
Sa growth 42C	89	103	91	96	97	105	86	95
Sa growth 42C second temp	100	78	84	84	68	97	82	90

(41) Cc1noc(C)c1S(=O)(=O)N1Cc2ccccc2CC1C(=O)O (stereo not given)
(42) c1ccc2c(c1)c1ccccc1n2CN1CCCCC1
(43) Cc1ccc(CN2C(=O)c3ccncc3C2=O)cc1
(44) COc1cc(C(=O)NCC(c2ccc3c(c2)OCO3)N2CCOCC2)cc(OC)c1OC (stereo not given)
(45) Cc1nc(NCC2CCCO2)c2nnn(Cc3c(F)cccc3Cl)c2n1 (stereo not given)
(46) CCCN(CCC)C(=O)Cn1c(C)nc2onc(C)c2c1=O
(47) CCCCOc1ccc(C(=O)N(Cc2ccc(C(C)C)cc2)C2CCS(=O)(=O)C2)cc1 (stereo not given)
(48) N/C(=N\O)c1cn(CCOc2ccccc2Cl)c2ccccc12
entry no.	41	42	43	44	45	46	47	48
HCMV NEC inh	-14	-11	-48	/	0	-14	-23	/
GIV-Gai inh	97	99	105	95	96	107	99	105
Sa growth 42C	86	93	/	103	86	/	67	116
Sa growth 42C second temp	93	94	/	86	103	/	76	80

(49) COc1ccc(C(=O)COC(=O)c2cccc(N3C(=O)C4C5C=CC(C5)C4C3=O)c2)cc1 (stereo not given)
(50) O=C1CC(=O)N(Cc2cccs2)C(=O)N1
(51) COc1ccc(N(C(C)C(=O)NC2CC2)S(=O)(=O)c2cccc(C)c2)cc1 (stereo not given)
(52) Cc1ccc(-n2ncc(-c3cc(C(=O)N4CCCC4)c4cc(C)ccc4n3)c2C)cc1
(53) Cc1cc(=O)cc(C)n1-c1ccc2c(c1)nc(C)n2-c1ccccc1
(54) COc1ccccc1N1CCN(S(=O)(=O)c2cc(C(=O)N3CCCC3)n(C)c2C)CC1
(55) Cc1cc(=O)oc2cc(Oc3nc(-c4cccnc4)nc4ccccc34)ccc12
(56) COC(=O)C1(C#N)C(C)(C)C1(C#N)C(=O)OC (stereo not given)
entry no.	49	50	51	52	53	54	55	56
HCMV NEC inh	-13	-5	-13	-26	-1	-28	-9	-1
GIV-Gai inh	105	114	/	104	/	100	104	102
Sa growth 42C	/	98	104	/	73	/	91	101
Sa growth 42C second temp	/	88	84	/	90	/	81	84

(57) COc1cccc(-c2nc(CS(=O)(=O)CC(=O)Nc3cc(F)ccc3F)c(C)o2)c1
(58) CC(C)NC(=O)Nc1cccc(-c2noc(C3CC(=O)N(c4ccccc4)C3)n2)c1 (stereo not given)
(59) Cc1oc2cc(O)ccc2c(=O)c1-c1ccc(Br)cc1
(60) O=c1c2cc(NC(=S)NCc3ccc4c(c3)OCO4)ccc2nc2n1CCCCC2
(61) O=C1CSc2nc(-c3ccccc3)c(-c3ccccc3)n21
(62) COc1ccc(NC(=O)CN2C(=O)C(C)(C)c3ccccc32)cc1Cl
(63) CCc1ccc(NC(=O)CC2C(=O)N(c3ccc(C)cc3)C(=O)N2C2CCCC2)cc1 (stereo not given)
(64) Cc1ccc(C(=O)n2nc(C)c(S(=O)(=O)N3CCOCC3)c2C)cc1
entry no.	57	58	59	60	61	62	63	64
HCMV NEC inh	-10	-16	-36	-19	-7	/	-2	/
GIV-Gai inh	107	102	/	99	108	102	102	104
Sa growth 42C	106	/	107	97	106	83	105	92
Sa growth 42C second temp	93	/	76	69	88	72	76	94

(65) CCN(CC)c1ccc(C2Nc3ccccc3-c3cc(C)nn32)c(O)c1 (stereo not given)
(66) CCOc1ccc(S(=O)(=O)N2CCCCC2C)c2ccccc12 (stereo not given)
(67) CC(Oc1ccc(C(C)(C)C)cc1)c1nc(-c2ccccn2)no1 (stereo not given)
(68) COc1cc(Nc2ncc3c(n2)CCN(S(=O)(=O)c2ccc(C(C)C)cc2)C3)cc(OC)c1
(69) CN(C)C(=O)CSc1ncnc2ccccc12
(70) Cc1cc(C)c(C)c(C(=O)COC(=O)c2ccc(-n3c(C)ccc3C)cc2)c1C
(71) O=C(O)c1ccc(CN2CCCC2=O)cc1
(72) O=C(NCCC1=CCCCC1)C1CCN(c2cc(-c3cccc(F)c3)ncn2)CC1
entry no.	65	66	67	68	69	70	71	72
HCMV NEC inh	-3	11	-24	-16	-4	-52	-27	-40
GIV-Gai inh	110	98	101	104	/	/	/	102
Sa growth 42C	95	104	/	/	108	76	79	/
Sa growth 42C second temp	83	111	/	/	97	61	94	/

(73) CCC1CCCCN1CCCNC(=O)c1ccc(Sc2ccc(C)cc2)c(NC(C)=O)c1 (stereo not given)
(74) Nc1nonc1-n1nnc(C(=O)N=Nc2c(O)[nH]c3ccc(Br)cc23)c1-c1ccccc1
(75) Cc1cc(C)cc(NC(=O)CN2C(=O)COc3ccc(S(=O)(=O)Nc4ccccc4)cc32)c1
(76) O=C(NCC1(c2ccccc2)CCOCC1)c1ccc(Br)cc1
(77) O=C1NC2=C(C(=O)OC2)C(c2cccs2)N1 (stereo not given)
(78) N#CCC(=O)NC1CC1
(79) O=S(=O)(c1ccccc1)n1nc(-c2ccco2)nc1NCc1ccccc1
(80) CCNc1nc(NCC)n2c(SCC(=O)N(c3ccccc3)C(C)C)nnc2n1
entry no.	73	74	75	76	77	78	79	80
HCMV NEC inh	/	-9	/	/	-12	-36	-30	-25
GIV-Gai inh	105	98	107	102	114	/	103	99
Sa growth 42C	107	104	103	110	99	86	101	/
Sa growth 42C second temp	93	36	98	101	88	86	85	/

(81) c1ccc(-c2nc3sccn3c2COc2ncnc3ccccc23)cc1
(82) O=C(CC(C(=O)O)c1c[nH]c2ccccc12)c1ccccc1 (stereo not given)
(83) CC1(C)CC(=O)C2=C(C1)Nc1ccccc1N(C(=O)c1ccccc1)C2c1ccccc1 (stereo not given)
(84) c1ccc2c(c1)OCC(CNc1ncnc3nc[nH]c13)O2 (stereo not given)
(85) Cn1cnnc1Sc1nc2c(c(=O)n(C)c(=O)n2C)n1Cc1ccc(Cl)cc1Cl
(86) CN1C(=O)c2cc3ccccc3n2CC1(C)C(=O)NCC(=O)NCCN1CCOCC1 (stereo not given)
(87) O=S(=O)(c1ccccc1)N1CCN=C1N1CCN(c2ccccc2Cl)CC1
(88) Cc1ccc(NC(=O)CC2SC(=O)N(CN3CCOCC3)C2=O)cc1 (stereo not given)
(89) CCn1ccc2cc(S(=O)(=O)N3CCCN(C(=O)Nc4ccccc4Cl)CC3)ccc21
entry no.	81	82	83	84	85	86	87	88	89
HCMV NEC inh	5	-2	-2	-32&-7&-7	-14	1	1	-53	9
GIV-Gai inh	/	105	/	97	95	103	104	106	105
Sa growth 42C	108	96	75	101	/	/	/	/	/
Sa growth 42C second temp	91	89	96	83	/	/	/	/	/
